LANA-H2B inh: blocks KSHV LANA binding to histone H2A/H2B | actives 0.6% (n = 320,000) | inhibition, % (concentration not given with the values) | cell-free LANA-H2A/H2B peptide, fluorescence polarization | Q9QR71; in the data active = inhibition mostly above about 10%, no sharp cut-off; inactive = mostly below about 6.7%;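 note: stock transfer was 7.5 nL into about 10 µL; 0% = median of vehicle wells and 100% = median of positive control wells; one replicate is shown; the record names a cut of 25% in any replicate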
Beta2AR agonist: agonists of human beta-2 adrenergic receptor inducing internalization; response, % (no concentration beside the values); Am2.2-beta2AR cells, FAP receptor internalization, flow cytometry; reference of the scale not given here; actives 0.43% (n = 340,000); AID 504454;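 active = response above a set limit, near 3 SD of response in nonfluorescent compounds, cut at about 42% in these data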;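 note: stock transfer was 100 nL into about 11 µL; a reference agonist was the positive control; negative values mostly stem from fluorescent compounds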
Target sequence (P07550 whole entry, looked up): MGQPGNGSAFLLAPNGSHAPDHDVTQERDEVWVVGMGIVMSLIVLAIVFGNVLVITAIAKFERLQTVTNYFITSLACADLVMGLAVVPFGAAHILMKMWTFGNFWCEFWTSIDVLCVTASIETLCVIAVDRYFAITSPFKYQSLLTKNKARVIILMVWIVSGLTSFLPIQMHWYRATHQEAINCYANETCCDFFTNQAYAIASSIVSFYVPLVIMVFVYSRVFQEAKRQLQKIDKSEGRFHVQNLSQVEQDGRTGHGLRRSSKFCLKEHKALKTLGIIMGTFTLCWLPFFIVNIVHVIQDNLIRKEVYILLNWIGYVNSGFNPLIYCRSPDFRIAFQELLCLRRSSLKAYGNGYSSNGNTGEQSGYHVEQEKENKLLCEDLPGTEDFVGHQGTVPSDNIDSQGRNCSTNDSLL
UCH37 DUB inh: human UCH37 deubiquitinating enzyme inhibition; Q9Y5K5; AID 588478; inhibition, % (no concentration beside the values); actives 0.33% (n = 330,000); purified proteasome/UCH37, Ub-AMC cleavage fluorescence;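 active = mean of two replicates above 20%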;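 note: 0% = compound-free wells with enzyme and 100% = wells lacking proteasome; stock transfer was 100 nL into about 20 µL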
Target sequence (Q9Y5K5 whole entry, looked up): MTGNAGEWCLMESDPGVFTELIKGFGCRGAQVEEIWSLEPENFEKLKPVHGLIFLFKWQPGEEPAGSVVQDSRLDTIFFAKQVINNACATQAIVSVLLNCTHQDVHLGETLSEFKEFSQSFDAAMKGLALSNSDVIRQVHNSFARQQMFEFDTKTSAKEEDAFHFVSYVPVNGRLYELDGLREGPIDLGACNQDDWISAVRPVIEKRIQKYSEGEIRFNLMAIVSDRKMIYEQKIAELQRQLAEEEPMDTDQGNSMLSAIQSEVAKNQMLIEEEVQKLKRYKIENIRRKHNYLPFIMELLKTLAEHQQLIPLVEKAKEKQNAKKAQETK
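Test system – human UCH37 enzyme supplied as purified proteasome complex · Incubation – 30 min preincubation with enzyme, 25 min cleavage at room temperature · Detection – AMC fluorescence from Ub-AMC cleavage, excitation 355 nm, emission 460 nm · Benchmarks – no-proteasome wells (full inhibition) and compound-free wells (no inhibition)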
Vif TR-FRET: inhibitors of Vif binding to APOBEC3G peptide, primary screen, biochemical, TR-FRET, GST-Vif 1-94, biotin-A3G peptide, dose response retest (AID 1117319); TR-FRET GST-Vif / biotin-A3G peptide binding; higher % means a stronger effect; test concentration not given here; strong numbers were not always called active; inhibition, %, or IC50 in µM where a hit was titrated; actives 0.57% (n = 260,000);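 active = above the screen mean plus three standard deviations and confirmed in dose response; inconclusive = results disagree or hit not tested in dose response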;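 note: Vif residues 1-94 fused to GST binding biotinylated APOBEC3G peptide 110-148; 0% = full assay without inhibitor and 100% = GST in place of GST-Vif; retest series ran down from 100 µM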
A1 inh: inhibitors of the anti-apoptotic protein A1, read as caspase activation | caspase activation, % (no concentration beside the values) | MEF A1-2A-BIM cells, Caspase-Glo 3/7 luminescence, 3 h; percent of clofoctol response, vehicle zero | actives 0.066% (n = 330,000);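 active = over half of replicate activation scores above 10%, or exactly half above 10 with the replicate mean above 10; inconclusive = replicate mean below 10 yet half the replicates above 10; inactive = over half of replicates below 10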;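 note: wells of about 30 µL received 50 nL stock; many hits fall short of the cut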
HNF4A DNA FP: change in binding of human HNF4 alpha to DNA; actives 0.3% (n = 360,000); HNF4a-FITC DNA binding, fluorescence polarization, 1 h; AID 1224865; P41235; activity change, % at 10 µM; in the data active = activity change above about 30%, passing the limit was not always enough;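 note: controls were the assay level and a saturating level of protein; the project sought stronger binding though the title names inhibitors; some compounds called inactive have numbers as strong as hits; positive values seem to mean higher polarization but the record does not say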
E coli growth: inhibitors of Escherichia coli growth; OD600, 23 h; active compounds read low; OD600 absorbance (concentration not given with the values); AID 1053175; actives 0.21% (n = 330,000);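 active = OD600 absorbance below the run mean of sample wells minus 3.6 SD, in any replicate, cut at about 0.56 in these data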;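 note: stock transfer was 300 nL into about 60 µL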
* marks the source's active call; other numbers are inactive results; ? = inconclusive; · = no result given.

SMILES	LANA-H2B inh	Beta2AR agonist	UCH37 DUB inh	Vif TR-FRET	A1 inh	HNF4A DNA FP	E coli growth
CN(CC(=O)Nc1ccccc1Cl)C(=O)COC(=O)c1cc(S(=O)(=O)N(C)C)ccc1N1CCCC1	2.8	-4.9	1.0	8.2%	1.1	0.2	0.65
COC(=O)CNC(=O)CN1c2cccc3cccc(c23)S1(=O)=O	-1.4	12.9	-59.2	4.2%	0.3	2.0	0.715
CCN(CC(=O)Nc1ccccc1C(=O)NC1CC1)Cc1cccs1	·	-5.8	3.1	-1.4%	·	3.4	0.662
O=C(N/N=C/c1ccc(O)c(Br)c1)c1cc2c(ccc3ccccc32)o1	-0.2	12.3	·	·	-0.8	4.8	·
O=C1/C(=C/N(C(=O)c2ccco2)c2ccc(Br)cc2)Sc2ccccc21	6.6	19.7	2.1	0.7%	-5.8	13.7	0.643
O=C(O)c1cc(O)ccc1NC(=O)C(c1ccccc1)c1ccccc1	0.0	0.7	0.4	·	1.3	-13.1	0.666
CCn1c(SCc2nc3ccccc3[nH]2)nnc1-c1ccncc1	2.9	8.2	-8.3	6.1%	-0.3	11.5	0.706
Cn1c(SCC(=O)N2CCN(c3ccccc3)CC2)nnc1-c1ccco1	3.8	-18.4	-1.3	24.4%	1.0	-4.2	0.694
CCOc1ccc(OCc2ccc(C(=O)N3CCCC3)o2)cc1	-1.9	-4.4	2.0	3.0%	-0.5	1.4	0.662
CC(=O)c1ccc(OC(C)C)c(CSc2nc(O)cc(=O)[nH]2)c1	-2.9	-1.1	3.8	4.0%	-0.5	-0.9	0.798
OCC1(Cc2ccccc2)CCCN(Cc2ccn[nH]2)C1 (stereo not drawn)	-1.4	-3.4	4.4	3.8%	0.1	3.2	0.687
CN(C)/C=N/c1sc2c(c1C#N)CC(C)(C)NC2(C)C	-1.0	-6.5	·	8.0%	0.4	4.6	·
COC(=O)c1ccccc1NC(=O)NCc1ccc2c(c1)OCO2	3.7	-11.9	-5.4	18.5%	-1.0	0.1	0.636
CCOC(=O)c1cc2sc(C)cc2n1C(C)C(=O)OCC (stereo not drawn)	0.7	-2.0	-0.4	-0.1%	0.0	-4.3	0.701
Cc1nc2c(=O)n(-c3ccc(F)c(Cl)c3)nc(C)c2s1	5.6	-13.4	5.8	-4.2%	0.7	-2.3	0.679
O=C(NCc1ccccc1F)c1cccc(S(=O)(=O)N2CCCCCC2)c1	6.3	-0.5	-0.9	9.4%	-1.1	-1.9	0.668
O=C(NCc1ccc(F)cc1)c1cc2ccccn2n1	-0.8	-12.9	-0.5	0.0%	-1.3	-0.3	0.737
COc1ccc(C(=O)c2ccc(Cl)c([N+](=O)[O-])c2)cc1	1.7	47.8*	4.8	10.9%	?	3.9	0.664
COc1ccc2c(CCNC(=O)Nc3ccccc3)c[nH]c2c1	-9.3	9.2	1.7	·	-0.6	0.3	0.717
CCOc1cc(/C=N/NC(=O)C2CCCC2)ccc1OC(C)C	-0.6	2.0	·	·	1.2	0.7	·
Cc1ccc(NC(=O)CCC(=O)N/N=C/c2ccccc2O)cc1	1.8	-6.8	·	-13.7%	-0.5	1.3	·
COc1ccc(-c2oc3cccnc3c2/C=C/c2ccc(OC)c(OC)c2)cc1	-3.1	-0.3	-159.5	·	0.0	4.3	·
Cc1nn(-c2ccccc2)c(N)c1N=O	4.2	-8.0	5.2	-1.6%	1.0	-2.3	0.691
O=C1/C(=C/c2ccccc2)CN(C(=O)CCN2CCOCC2)C/C1=C\c1ccccc1	·	14.1	·	21.4%	·	-4.2	·
O=C(CCCc1ccccc1)NCc1ccccc1Cl	0.8	-5.5	1.5	·	0.7	-1.1	0.697

The list continues.
SMILES	LANA-H2B inh	Beta2AR agonist	UCH37 DUB inh	Vif TR-FRET	A1 inh	HNF4A DNA FP	E coli growth
O=C(NCCO)NC(=S)c1ccccc1	0.5	-1.0	2.5	5.5%	-0.4	3.7	0.669
CCOc1cc(N2CCOCC2)c(OCC)cc1NC(=O)c1ccc(-n2ccnc2)c([N+](=O)[O-])c1	0.4	8.2	3.1	·	1.1	-0.6	0.681
CC(C)(Cc1ccc(O)cc1)NC(=O)SCc1ccccc1	-1.6	1.4	2.9	·	-0.5	-0.7	0.607
CCC1c2ccc(C)n2CCN1C(=O)Nc1ccccc1C(=O)OC (stereo not drawn)	6.6	12.7	-1.5	21.5%	1.7	0.9	0.771
CCC(C(=O)NCCCN1CCCC1=O)n1c2ccccc2c2nc(=O)cc(C)n21 (stereo not drawn)	4.0	19.2	3.1	·	0.2	-0.1	0.676
Cc1ccc(S(=O)(=O)c2cc3c(=O)n4cccc(C)c4nc3n(Cc3ccncc3)c2=N)cc1	-1.6	-2.5	·	·	-0.3	1.6	·
CN(C(=O)c1ccno1)c1nnc(-c2ccccn2)s1	2.6	-8.8	-211.0	6.7%	-0.2	0.1	0.689
Cc1nnc(SCC(=O)N2CCOCC2)[nH]c1=O	10.7	7.7	1.4	-4.3%	0.2	-4.2	0.686
O=C(CSc1nc2ccccc2s1)Nc1cc(C(=O)O)cc(C(=O)O)c1	-3.8	-2.6	3.0	29.0%	0.8	-3.2	0.697
O=C(Nc1ccc(N2CCOCC2)cc1)c1cc(-c2ccncc2)nc2ccccc12	5.6	19.1	7.3	-6.7%	0.4	-2.1	0.711
Cc1csc2nc(CNC(=O)c3ccco3)cn12	-3.2	-1.4	-2.7	4.2%	-0.2	-1.9	0.751
CC(=O)Nc1ccc(S(=O)(=O)Nc2ccc(N3CCCCC3)cc2)cc1	0.7	6.4	5.4	·	0.5	8.1	0.732
COc1cccc(-n2c(=S)sc3c(=O)n(-c4ccccc4OC)c(=S)[nH]c32)c1	·	4.2	-0.6	2.4%	-0.9	4.0	0.679
CCc1ccc(C2c3[nH]c4ccccc4c3CCN2C(=O)c2ccc(=O)n(C)n2)cc1 (stereo not drawn)	5.4	-0.2	2.7	·	0.2	-0.8	0.71
Cc1ccc(S(=O)(=O)Nc2nc3ccccc3nc2N2CCOCC2)cc1	0.8	-3.7	9.9	-6.7%	-0.8	-0.2	0.722
CCOC(=O)c1sc(NC(=O)c2ccc(=O)[nH]c2)nc1C	2.7	4.3	1.4	·	-4.8	2.0	0.689
Cc1ccc([C@@H]2CC=C(C(=O)O)[C@H](c3ccc(F)cc3)N2S(=O)(=O)c2ccc(C)cc2)cc1	5.4	-1.0	3.1	·	-0.6	2.5	·
COc1ccc(C(=O)NCc2ccc(Cl)c(Cl)c2)cc1OC	0.3	20.4	1.1	23.7%	-0.4	-3.9	0.668
O=C(Nc1ccccc1)N1CCN(c2ccc(C(F)(F)F)cn2)CC1	1.4	1.0	0.1	-3.8%	0.4	-2.2	0.647
Cc1ccc(Cl)c(OCCN2CCCC(C)C2)c1 (stereo not drawn)	0.5	-3.2	4.0	-4.9%	0.8	5.8	0.683
CC1=CC(C)(C)n2c(O)c(N=NC(N)=S)c3c(C)ccc1c32	0.0	-14.6	5.6	15.0%	-0.4	-1.1	0.731
COC(=O)c1ccccc1-n1c(CCC(=O)O)ccc1-c1ccccc1	-6.9	-12.5	1.2	·	0.6	1.9	0.654
O=S(=O)(c1ccc(Br)cc1)n1c(Cc2ccccc2)nc2ccccc21	-1.2	2.2	6.0	-0.5%	0.1	0.1	0.62
O=C(CSc1nnc(-c2ccc(C(F)(F)F)cn2)s1)c1ccc(Cl)cc1	-3.9	-5.3	2.7	-11.2%	-0.1	2.8	0.645
CCOC(=O)c1nnc(-c2ccccc2)nc1NC	2.5	2.5	4.6	2.8%	-1.3	-0.4	0.658

Profiles as entered above. Screens in order: LANA-H2B inh	Beta2AR agonist	UCH37 DUB inh	Vif TR-FRET	A1 inh	HNF4A DNA FP	E coli growth
Entry for `COC(=O)c1ccccc1-n1c(CCC(=O)O)ccc1-c1ccccc1` → -6.9	-12.5	1.2	·	0.6	1.9	0.654
Entry for `O=S(=O)(c1ccc(Br)cc1)n1c(Cc2ccccc2)nc2ccccc21` → -1.2	2.2	6.0	-0.5%	0.1	0.1	0.62
Entry for `CCn1c(SCc2nc3ccccc3[nH]2)nnc1-c1ccncc1` → 2.9	8.2	-8.3	6.1%	-0.3	11.5	0.706

Single values from above:
A1 inh, CCOC(=O)c1nnc(-c2ccccc2)nc1NC reads -1.3
E coli growth, Cc1csc2nc(CNC(=O)c3ccco3)cn12 reads 0.751

Structures listed so far printed as active in Beta2AR agonist:
SMILES | LANA-H2B inh | Beta2AR agonist | UCH37 DUB inh | Vif TR-FRET | HNF4A DNA FP | E coli growth
COc1ccc(C(=O)c2ccc(Cl)c([N+](=O)[O-])c2)cc1 | 1.7 | 47.8* | 4.8 | 10.9% | 3.9 | 0.664

Next section
SMILES	LANA-H2B inh	Beta2AR agonist	UCH37 DUB inh	Vif TR-FRET	A1 inh	HNF4A DNA FP	E coli growth
O=C(COC(=O)c1cncc(Br)c1)NCCC1=CCCCC1	2.6	-7.6	6.9	2.1%	-0.9	-0.6	0.729
Cn1c(=O)[nH]c(=O)c2c1nc(N1CCNCC1)n2CCOc1ccccc1	-8.9	-5.8	2.9	-2.3%	-0.4	1.3	0.662
Cc1cc(C[n+]2cc(Br)ccc2N)c2ncccc2c1	-5.0	5.6	2.9	-2.2%	0.2	-2.1	0.674
Cc1ccc2nc(Nc3nc(C)cc(-c4ccccc4)n3)[nH]c(=O)c2c1	0.5	1.4	2.5	-8.7%	-1.4	6.2	0.715
Cc1ccnc(NS(=O)(=O)c2ccc(NC(=O)C3CCCO3)cc2)n1 (stereo not drawn)	2.2	15.9	4.2	2.2%	-0.4	1.5	0.716
COCCCNC(=O)CCc1c(C)nc2c(-c3ccc(F)cc3)c(C)nn2c1C	3.4	-6.3	1.7	22.5%	-0.1	-3.1	0.666
CCCc1cc(=O)[nH]c(SCC(=O)NCCC2=CCCCC2)n1	4.4	0.0	4.7	14.5%	0.3	0.7	0.73
COc1ccc(-c2cnc(OC(C)(C)C)nc2OC(C)(C)C)cc1OC	7.1	5.9	4.6	-1.1%	-1.0	1.2	0.718
O=C(CSc1nnnn1C1CCCC1)Nc1ccccc1N1CCOCC1	1.6	-10.5	0.6	0.7%	1.9	-2.7	0.647
CSc1nnc(C)c(=O)[nH]1	3.2	-1.3	2.4	?	1.0	1.9	0.714
O=S(=O)(/N=C(/Nc1ccc(F)cc1F)c1ccccc1)c1ccccc1	2.0	-2.7	3.7	3.7%	-2.0	-1.9	0.667
COc1cc2c(cc1OC)C1=C(C#N)CCC(=NC(=O)c3ccc(Cl)cc3)N1CC2	-0.1	1.7	-0.2	3.4%	0.3	1.4	0.695
COc1ccccc1/C=N/NC(=O)c1nnn(-c2nonc2N)c1CSC1=NCCS1	-7.5	1.1	·	1.2%	-0.2	-1.6	·
CCn1c(Oc2ccc(F)cc2)nc2c1c(=O)n(C)c(=O)n2C	4.4	-2.6	·	6.1%	-0.3	1.3	·

Rewritten bar-delimited: entries from further up
canonical_smiles | LANA-H2B inh | Beta2AR agonist | UCH37 DUB inh | Vif TR-FRET | A1 inh | HNF4A DNA FP | E coli growth
Cc1ccc2nc(Nc3nc(C)cc(-c4ccccc4)n3)[nH]c(=O)c2c1 | 0.5 | 1.4 | 2.5 | -8.7% | -1.4 | 6.2 | 0.715
Cc1ccnc(NS(=O)(=O)c2ccc(NC(=O)C3CCCO3)cc2)n1 (stereo not drawn) | 2.2 | 15.9 | 4.2 | 2.2% | -0.4 | 1.5 | 0.716
COCCCNC(=O)CCc1c(C)nc2c(-c3ccc(F)cc3)c(C)nn2c1C | 3.4 | -6.3 | 1.7 | 22.5% | -0.1 | -3.1 | 0.666
